# PABP FP inh – PABP poly(A) RNA binding inhibitors, primary screen, biochemical, fluorescence polarization, uHTS | inhibition, % at 35 µM | hit rate 1% among 290,000 | AID 2014, 2009;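 active means 50% or more with normal probe brightness, or confirmed in later tests; inconclusive means above 50% with abnormal brightness, or retests that disagree; inactive means below 50% or failed in later tests; about a fifth of its hits are not listed in these tables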;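 further: calls also rest on retests at 20 µM and on dose response follow-up; controls were probe without protein and protein plus probe with vehicle; some compounds called inactive have numbers as strong as hits; many hits fall short of the cut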
# Target sequence (P11940 whole entry, looked up): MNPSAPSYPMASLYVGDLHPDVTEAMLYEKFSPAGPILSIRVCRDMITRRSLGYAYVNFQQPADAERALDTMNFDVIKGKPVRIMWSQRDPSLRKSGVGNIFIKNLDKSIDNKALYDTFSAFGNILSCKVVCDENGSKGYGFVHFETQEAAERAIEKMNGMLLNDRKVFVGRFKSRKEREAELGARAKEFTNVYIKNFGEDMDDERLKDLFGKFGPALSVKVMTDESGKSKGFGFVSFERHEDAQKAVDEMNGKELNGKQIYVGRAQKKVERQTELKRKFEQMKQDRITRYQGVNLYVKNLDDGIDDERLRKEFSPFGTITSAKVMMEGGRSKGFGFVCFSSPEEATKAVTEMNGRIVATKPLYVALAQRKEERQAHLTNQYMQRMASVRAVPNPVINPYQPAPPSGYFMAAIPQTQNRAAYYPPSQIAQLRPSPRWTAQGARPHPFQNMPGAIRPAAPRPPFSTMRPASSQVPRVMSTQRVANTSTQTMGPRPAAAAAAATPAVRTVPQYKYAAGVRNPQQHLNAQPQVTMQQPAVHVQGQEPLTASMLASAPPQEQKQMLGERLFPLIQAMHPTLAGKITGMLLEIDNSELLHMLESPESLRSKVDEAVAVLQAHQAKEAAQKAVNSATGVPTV
# Yeast UUG start – modulators of yeast start codon fidelity, primary screen, whole organism, S. cerevisiae, single point, plate reader | S. cerevisiae UUG-firefly luciferase reporter, luminescence/redox ratio | activity score, % at 18.7 µM | hit rate 0.13% among 350,000 | AID 602363, 2012;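 active means replicate mean at a twofold rise or more, about +100% in these data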;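 further: firefly luciferase made from a UUG start codon reports start codon fidelity; reporter light over untreated wells divided by growth signal over untreated wells; some hits fall short of that in this replicate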
# Rce1 inh – yeast Rce1p protease inhibitors, primary screen, biochemical, fluorescence, cell-free homogeneous | hit rate 0.27% among 290,000 | yeast membranes, quenched prenylated peptide cleavage fluorescence | CAAX prenyl protease 2 (Saccharomyces cerevisiae (strain ATCC 204508 / S288c)), Q03530 | calls only | AID 2563, 2010;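 active means fall in fluorescence gain of 50% or more versus controls, with final raw signal at or below 3038400; inconclusive means same 50% fall but final raw signal above 3038400; inactive means fall in fluorescence gain under 50%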;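 further: plate controls were neutral control wells for no effect and wells lacking membranes for full effect; tested at 10 µM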
# eIF4H FP inh – human eIF4H binding inhibitors, primary screen, translation initiation inhibitor project, biochemical, uHTS, fluorescence polarization | inhibition, % at 35 µM | hit rate 0.94% among 290,000 | eIF4H fluorescence polarization binding assay | Eukaryotic translation initiation factor 4H (Homo sapiens), Q15056;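 active means 50% or more with normal probe brightness, or confirmed in later tests; inconclusive means above 50% with abnormal brightness, or retests that disagree; inactive means below 50% or failed in later tests; about a fifth of its hits are not listed in these tables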;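 further: calls also rest on retests at 20 µM and on dose response follow-up; 0% = protein and probe with vehicle and 100% = probe without protein; strong numbers were not always called active; many hits fall short of the cut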
# HIV Env fusion – inhibitors of HIV-1 Env-driven cell-cell fusion, primary screen, HeLa-JRFL effector, CEM21 target cells, luciferase; AID 651610, 2012; inhibition, % at 12.3 µM; hit rate 1.1% among 360,000;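 active means mean replicate inhibition score of at least 50 and every replicate individually at or above 50; inconclusive means only one of the two criteria met; inactive means mean below 50 and not all replicates reaching 50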;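 further: 0% = plate neutral controls and 100% = maraviroc near 300 nM; one replicate is shown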
# MT1-MMP act inh – blockers of MT1-MMP proenzyme processing, primary screen, HT1080 RFP-PRO-GFP cells, GFP/RFP fluorescence. hit rate 0.061% among 360,000. GFP/RFP ratio change, % at 20 µM. AID 651647, 2012. GFP/RFP ratio fluorescence, overnight; percent of plate control window, DMSO zero. Matrix metalloproteinase-14 (Homo sapiens), P50281;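 active means GFP/RFP ratio change of at least 30% with cell ATP level not reduced by more than half and red fluorescence within 50% of control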; further: strong numbers were not always called active
#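 Read-out: GFP/RFP fluorescence ratio; Test system: RFP-PRO-GFP reporter HT1080 cells; Compound dosing: single-point 20 µM compound, 1% DMSO; Times: overnight compound exposure at 37 °C.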
# CSC inhib – cancer stem cell viability inhibitors, primary screen, luminescence; cancer stem cell-like cells viability; inhibition, % at 7.5 µM; hit rate 1.1% among 300,000;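 active means mean at 75% or more and at least half the replicates too; inconclusive means mean and replicates disagree; tested in HMLE shEcad cells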;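 further: 0% = median of negative and 100% = median of positive control wells; the first replicate is given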
# eIF4H FP inh retest – also measured in eIF4H FP inh; calls as there; inhibition, %; compound at 20 µM; confirmation average;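 mean of two retest wells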
# PABP FP inh retest – recorded beside PABP FP inh, whose call it bears; inhibition, %; compound at 20 µM; confirmation repeats;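 mean of two retest wells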
# MT1-MMP act inh RFP – further read-out of MT1-MMP act inh, marked with its call; RFP signal change, %; measured here: RFP expression control read;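 0 = vehicle wells; hits needed this value within 50% of zero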
# Starred values were filed as active, the others as inactive; i = inactive; u = inconclusive; x = not tested or not shown; + = active, no number.
# The opening twelve compounds, ahead of the listing:
SMILES,PABP FP inh,Yeast UUG start,Rce1 inh,eIF4H FP inh,HIV Env fusion,MT1-MMP act inh,MT1-MMP act inh RFP,CSC inhib,others
COc1ccccc1NC(=O)NCc1nc(-c2ccc(C(F)(F)F)cc2)no1,-10,-15,i,-5,-4,3,-3,-5,
COC(=O)c1cc2ccsc2n1Cc1nc(-c2ccc(OC)cc2)oc1C,-2,-15,i,-8,x,0,-4,x,
CNc1ccc(Br)cc(C(=O)/C=C/c2ccc(OC)cc2)c1=O,1,x,i,32,-66,-18,1,35,
CSc1ncc(C(=O)Nc2cccc(Cl)c2)c(C)n1,-2,-7,i,7,-7,2,1,5,
Cn1ccnc1SCC(=O)Nc1ccc(Br)cc1C(F)(F)F,3,-13,i,-6,x,-1,1,6,
COc1ccc2nc(/N=C/c3cccc(OC)c3O)sc2c1,0,3,i,-9,-7,-1,-1,-1,
CC(C)c1ccc(/C=C2\SC(=S)N(CCC(=O)NCCCn3ccnc3)C2=O)cc1,11,-40,+,11,39,2,-6,10,
Cc1cc(Cl)ccc1NC(=O)C1CCCN1C(=O)c1cccs1 (stereo not drawn),-3,x,i,1,-45,3,3,20,
CCOC(=O)n1c(SCC(N)=O)nc2ccccc21,11,-14,i,-6,-77,-4,-6,-3,
Cc1nc2cc(NCc3ccc(Cl)cc3)ccc2n1C,-7,-31,i,-4,-33,5,0,-18,
COc1ccc(C(=O)Oc2cc(/C=N/NC(N)=S)ccc2OC)cc1,-3,-17,i,0,-5,6,-4,-5,
O=C1CCC/C(=N\NC(=O)c2ccc(NS(=O)(=O)c3ccc(Br)cc3)cc2)C1,2,x,i,4,-3,-3,3,-11,

# Results, previewed entries included:
SMILES,PABP FP inh,Yeast UUG start,Rce1 inh,eIF4H FP inh,HIV Env fusion,MT1-MMP act inh,MT1-MMP act inh RFP,CSC inhib,others
COc1ccccc1NC(=O)NCc1nc(-c2ccc(C(F)(F)F)cc2)no1,-10,-15,i,-5,-4,3,-3,-5,
COC(=O)c1cc2ccsc2n1Cc1nc(-c2ccc(OC)cc2)oc1C,-2,-15,i,-8,x,0,-4,x,
CNc1ccc(Br)cc(C(=O)/C=C/c2ccc(OC)cc2)c1=O,1,x,i,32,-66,-18,1,35,
CSc1ncc(C(=O)Nc2cccc(Cl)c2)c(C)n1,-2,-7,i,7,-7,2,1,5,
Cn1ccnc1SCC(=O)Nc1ccc(Br)cc1C(F)(F)F,3,-13,i,-6,x,-1,1,6,
COc1ccc2nc(/N=C/c3cccc(OC)c3O)sc2c1,0,3,i,-9,-7,-1,-1,-1,
CC(C)c1ccc(/C=C2\SC(=S)N(CCC(=O)NCCCn3ccnc3)C2=O)cc1,11,-40,+,11,39,2,-6,10,
Cc1cc(Cl)ccc1NC(=O)C1CCCN1C(=O)c1cccs1 (stereo not drawn),-3,x,i,1,-45,3,3,20,
CCOC(=O)n1c(SCC(N)=O)nc2ccccc21,11,-14,i,-6,-77,-4,-6,-3,
Cc1nc2cc(NCc3ccc(Cl)cc3)ccc2n1C,-7,-31,i,-4,-33,5,0,-18,
COc1ccc(C(=O)Oc2cc(/C=N/NC(N)=S)ccc2OC)cc1,-3,-17,i,0,-5,6,-4,-5,
O=C1CCC/C(=N\NC(=O)c2ccc(NS(=O)(=O)c3ccc(Br)cc3)cc2)C1,2,x,i,4,-3,-3,3,-11,
Cc1ccc(C(=O)NC(=S)NCCCN2CCOCC2)cc1,-4,1,i,-5,-13,2,4,-22,
COc1ccccc1-n1c(SCC(=O)Nc2ccc(Cl)cc2)nc(O)c(Cc2ccccc2)c1=O,x,-3,x,x,3,9,1,x,
CC1(c2ccc3c(c2)OCCO3)NC(=O)N(CC(=O)Nc2ccccc2F)C1=O (stereo not drawn),x,-2,x,x,-17,1,0,x,
COc1ccc(OC)c(NC(=O)c2sc3nc(Cc4ccccc4)cc(C(F)(F)F)c3c2N)c1,-1,-17,i,0,11,-48,1,x,
O=c1c2cc(NC(=S)N3CCCCCC3)ccc2nc2n1CCCCC2,-5,x,i,4,-2,2,-3,11,
COc1ccccc1NC(=S)N1CCN(c2ccccn2)CC1,-14,-24,i,-5,-16,6,6,-14,
CCN1CCN(C(=O)c2nn(-c3ccc(C)cc3)c(=O)c3c2c2ccccc2n3C)CC1,-9,-12,i,-9,-70,0,-1,0,
COc1ccc(C(C)=O)cc1CC1(C)C(=O)Nc2ccc(OC(F)(F)F)cc21 (stereo not drawn),x,-6,x,x,10,1,-1,x,
COc1cccc(CNC(=O)c2cc(C)nc3ccccc23)c1,-7,x,i,4,-12,-1,-1,-4,
O=c1c2ccc(Cl)cc2[nH]c(=S)n1CCC1=CCCCC1,-7,x,i,2,-402,-3,2,-16,
CC(=O)Nc1cncc(-c2cccc(C(=O)N(C)C)c2)n1,x,-24,x,x,12,2,3,x,
O=C(CNc1cc(S(=O)(=O)N2CCOCC2)ccc1N1CCOCC1)Nc1cccc(C(F)(F)F)c1,x,-13,x,x,i,1,-1,2,
CN=C(C)/C(C(=O)OC)=C(/O)c1ccccc1F,0,x,i,2,2,-2,-1,-17,
CSc1ccc(/C=C(\C#N)C(=O)NC2CCCCC2)cc1,-6,x,i,1,-14,-5,-4,27,
Cc1c(C(=O)N2CC(C)OC(C)C2)[nH]c2ccc(Br)cc12 (stereo not drawn),-12,-12,i,7,3,0,-3,4,
O=C(Nc1cccc(S(=O)(=O)NCc2ccco2)c1)c1cc(-c2ccccc2)nc2ccccc12,-1,x,i,-6,28,-1,-6,39,
CCc1ccc(C2=C/C(=C/c3cccnc3)C(=O)O2)cc1,-5,-7,i,-4,-20,2,4,5,
Cc1cc(C)c2c(=O)[nH]c(SCC(=O)Nc3ccc(N(C)C)cc3)nc2n1,1,-20,i,11,x,4,2,-1,
Cc1ccc(-n2c(SCc3ccc(C(=O)O)cc3)nnc2-c2ccncc2)cc1,11,x,i,-1,10,-1,-3,1,
N#CNc1nc(O)cc(=O)[nH]1,22,-11,i,48,x,-12,-4,-6,
CCCOc1ccc2[nH]cc(C(=O)O)c(=O)c2c1,0,-3,i,-6,x,9,-2,-5,
CCOC(=O)C1CCN(C(=S)Nc2ccc(Cl)cc2C)CC1,-3,x,x,1,15,3,7,-11,
CC1=NN(c2ccc(S(=O)(=O)O)cc2Cl)C(=O)C1,8,x,i,-8,11,0,0,-7,
COC(=O)c1ccc(C2c3[nH]c4ccccc4c3C[C@H]3C(=O)N(C4CCN(Cc5ccccc5)CC4)CC(=O)N23)cc1 (stereo partly drawn),-13,-3,i,-7,4,3,-2,3,

# Next part, overlapping the part above by 2 compounds.
SMILES,PABP FP inh,Yeast UUG start,Rce1 inh,eIF4H FP inh,HIV Env fusion,MT1-MMP act inh,MT1-MMP act inh RFP,CSC inhib,others
CC1=NN(c2ccc(S(=O)(=O)O)cc2Cl)C(=O)C1,8,x,i,-8,11,0,0,-7,
COC(=O)c1ccc(C2c3[nH]c4ccccc4c3C[C@H]3C(=O)N(C4CCN(Cc5ccccc5)CC4)CC(=O)N23)cc1 (stereo partly drawn),-13,-3,i,-7,4,3,-2,3,
COc1ccc(CNC(=O)c2cccc(NC(=O)CC3SC(N4CCCCC4)=NC3=O)c2)cc1 (stereo not drawn),x,-6,x,x,-1,-1,-1,4,
CC(C)(C)c1ccccc1NC(=S)NC1CCCC1,0,-33,i,-2,19,-4,-2,0,
C[C@@H](CN=[N+]=[N-])CN1CC[C@H](NC(=O)OCc2ccccc2)CCC1=O,-2,2,i,0,-33,0,2,-2,
CCOC(=O)c1ccccc1N/C=C/C(=O)c1cccs1,-10,x,i,-2,x,9,-4,9,
CC(=O)c1ccc(N(CC(=O)NC2CCCC2)C(=O)CCC(=O)Nc2cc(C)on2)cc1,-4,-10,i,4,-36,-2,-1,x,
CCOc1ccc(CC(=O)NC2CCN(Cc3ccccc3)CC2)cc1,-1,-2,i,-12,11,1,1,x,
Cc1ccsc1/C=N/NC(=O)CC(=O)NCC(C)C,3,x,i,-7,8,-1,0,-9,
Cc1ccnc(NC(=O)c2ccc(S(=O)(=O)NCc3ccco3)cc2)c1,x,0,i,x,-5,1,-2,-13,
O=C(Cn1ncc(Cl)c(Cl)c1=O)N1CCc2ccccc21,0,x,i,3,-100,-15,-32,x,
Cc1nnc(NC(=O)c2ccc(Br)cc2)s1,-9,-18,i,-5,-28,-1,0,-11,
CCc1nc2ccc(C(=O)Nc3ccc(OC)c(OC)c3)cn2c1N(C)C(=O)c1cccc(OC)c1,x,-8,x,x,-26,-1,-1,x,
CC(C)Oc1ccc(CSC(=N)N)cc1,-8,-9,i,-8,-157,5,4,-13,
Cc1ccnn1CC(=O)N/N=C/c1ccco1,0,-10,i,-12,-65,2,2,5,
CCc1ccccc1NC(=O)CCc1nc(-c2cccs2)no1,-2,x,i,4,-5,2,-3,0,
O=C(COC(=O)c1ccc2ccccc2n1)c1ccc(F)cc1,0,x,i,-8,3,-3,4,-14,
CCOc1ccccc1CN1CCN(CC2=Cc3cc(OC)ccc3OC2)CC1CCO (stereo not drawn),-7,x,i,2,4,3,-3,7,
Cc1cccc(N2CCN(Cc3nc(CC4CC4)no3)CC2)n1,-4,-15,i,6,10,3,0,-9,
CN1c2ccccc2N(C)C1(C)c1ccccc1,12*,x,i,67*,39,28,16,38,eIF4H FP inh retest=100*;PABP FP inh retest=85*
CCOc1ccc2nc(N3C(=O)/C(=C/c4ccccc4)NC3=S)sc2c1,-1,x,i,u,-97,-2,2,x,
COc1cc([N+](=O)[O-])cc(/C=N/NC(=O)C(C)Nc2ccccc2C)c1O (stereo not drawn),-9,4,i,14,-30,1,4,29,
CCN(Cc1ccccc1)C(=O)c1ccccc1C,-16,-4,i,-6,22,2,3,-16,
COc1ccc(C2/C(=C(/O)c3ccc(C)cc3)C(=O)C(=O)N2c2ccccn2)cc1OC (stereo not drawn),9,-29,i,-1,7,2,3,2,
CC(C)(C)c1ccc(C(=O)N/N=C/c2ccc(OCCCF)cc2)cc1,-5,x,i,-4,3,3,3,1,
O=C(c1ccc(Br)cc1)c1cc2ccc(O)cc2oc1=O,-1,-8,i,5,0,0,-3,7,
O=C(Cc1ccc(Cl)cc1)NCCc1c[nH]c2ccccc12,x,-14,i,x,3,5,4,0,
C=CCNC(=O)COC(=O)c1cccnc1Nc1ccccc1F,16,-6,i,-10,-6,0,-2,3,
CCC1(C)Cc2c(sc3nc4n(c(=O)c23)CCCS4)CO1 (stereo not drawn),x,-20,i,x,-20,6,-2,x,
O=C(O)C1=C[C@H](C2CC2)C[C@H](OCCCCO)O1,-4,-13,i,1,-17,1,0,2,
CNc1nc2ccccc2n1CC(=O)c1ccccc1,-4,3,i,7,-40,-2,1,-6,
O=c1c2cc(NC(=S)NC3CCCC3)ccc2nc2n1CCCCC2,-13,-31,x,46,-4,10,-2,-4,
COC(=O)c1c(NC(=O)CSc2nnnn2-c2ccccc2)sc2c1CCC(C)C2 (stereo not drawn),-9,x,i,-3,x,5,7,20,

# Bioassay records: PubChem, several laboratories

# This is a subset; rates above refer to the full screens.
